TRPML1 blocker – qHTS for Inhibitors of the Human Mucolipin Transient Receptor Potential 1 (TRPML1) | Mucolipin-1 (Homo sapiens), Q9GZU1 | TRPML1-inducible cells, Ca2+ dye fluorescence, FDSS; active compounds read low; inhibition of EC80 agonist-evoked calcium signal | activity change, negative = inhibition, % (concentration not given with the values) | 390,000 tested, 0.02% active; in the data active means activity change below about -50%; inconclusive means about -30% to -50%; inactive means above about -30%;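 further: stimulus is agonist 54-4 at its EC80 concentration; on the % scale 0 is the no-effect control and ±100 the full control effect; the text of the record puts the active cut at -80%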
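TRPML1-DL cells, Tet-induced overnight (~16 h, 37 °C) at 1,500 cells/well, were loaded with Ca8 no-wash dye plus quencher for 45-90 min at room temperature. Compounds were pinned during FDSS kinetic reading; agonist 54-4 at EC80 (4 uM final) then added.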
PINK1 expr mod – A Quantitative High throughput Screen to Identify Chemical Modulators of PINK1 Expression | PINK1 immunofluorescence, high-content cytometry, 24 h | Potency, µM (highest dose often 76.6 µM), without a hit: top-dose activation (PINK1 increase), most hits filed as activators | 410,000 tested, 0.2% active | AID 624263, 2012; active = well fitted activation curve with a large enough effect; inconclusive = small, poorly fitted or top-dose-only effect; inactive = flat fitted curve, though single readings scatter; cell line not stated here;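 further: potency means the concentration at half of the fitted maximal effect; % of control where 0% means no effect; nearly all actives have a fitted effect of over 65% in size; a mitochondrial uncoupler was the plate control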
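Stable cell line treated 24 h with compounds at 5 concentrations (CCCP controls), then fixed and immunostained for PINK1 plus nuclear and cell stains; PINK1 immunofluorescence quantified by laser-scanning microplate cytometry.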
D2 agonist – Beta-Arrestin HTS for Positive Allosteric Modulators of the Human D2 Dopamine Receptor: Agonists; DiscoveRx PathHunter D2 beta-arrestin, luminescence, 90 min; 100% = 57 uM dopamine signal; activation, % (concentration not given with the values); 360,000 tested, 0.084% active; in the data active = activation above about 40%; inconclusive = about 15% to 40%; inactive = below about 15%; further: compound concentration not given in the record; the text of the record calls up to 30% inactive
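Agonist mode: compounds alone added to overnight-plated D2 PathHunter cells for 90 min at 37 C, with 57 uM final dopamine (EC100) defining full response. Beta-arrestin recruitment detected by chemiluminescent reagent, read after 1 h at ambient temperature.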
Six1-Eya2 blk – qHTS Assay for Inhibitors of the Six1/Eya2 Interaction; AID 651725, 2012; activity change, % (no concentration beside the values); AlphaScreen GST-Six1/His-Eya2 binding, biochemical; active compounds read low; control for the full effect not named in the record; 360,000 tested, 0.56% active; in the data active = activity change below about -65%; inconclusive = about -30% to -65%; inactive = above about -30%; further: on the % scale 0 is the no-effect control and ±100 the full control effect
Target sequence (O00167 whole entry, looked up): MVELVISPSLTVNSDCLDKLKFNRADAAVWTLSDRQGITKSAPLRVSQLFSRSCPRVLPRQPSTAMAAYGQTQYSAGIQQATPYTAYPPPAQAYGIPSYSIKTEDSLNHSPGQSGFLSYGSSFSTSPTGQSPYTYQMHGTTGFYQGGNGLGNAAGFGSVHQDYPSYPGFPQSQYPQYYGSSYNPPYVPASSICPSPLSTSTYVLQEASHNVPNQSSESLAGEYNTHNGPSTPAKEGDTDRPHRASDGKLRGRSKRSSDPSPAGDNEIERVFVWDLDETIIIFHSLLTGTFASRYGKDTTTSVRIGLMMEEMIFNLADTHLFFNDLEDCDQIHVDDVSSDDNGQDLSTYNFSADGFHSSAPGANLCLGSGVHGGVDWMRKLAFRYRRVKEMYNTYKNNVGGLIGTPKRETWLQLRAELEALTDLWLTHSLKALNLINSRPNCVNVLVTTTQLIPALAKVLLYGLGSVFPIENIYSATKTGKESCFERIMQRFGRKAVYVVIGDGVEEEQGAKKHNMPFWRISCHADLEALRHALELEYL
Target sequence (Q15475 whole entry, looked up): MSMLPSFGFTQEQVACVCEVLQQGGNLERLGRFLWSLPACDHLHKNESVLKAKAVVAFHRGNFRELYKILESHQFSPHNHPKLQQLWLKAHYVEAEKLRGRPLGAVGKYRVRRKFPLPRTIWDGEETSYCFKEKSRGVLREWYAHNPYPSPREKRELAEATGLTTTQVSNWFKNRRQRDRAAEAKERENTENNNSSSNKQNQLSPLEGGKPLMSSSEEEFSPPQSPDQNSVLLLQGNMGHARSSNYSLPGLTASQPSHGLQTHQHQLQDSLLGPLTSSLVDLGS
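GST-Six1 + His-Eya2 (5X stock: 250/500 nM); Tris pH 8.0, 300 mM NaCl, 0.05% BSA, 0.02% Tween 20; GSH donor/Ni acceptor beads; 1 h 37 °C dark; AlphaScreen readout.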
TRPML1 agonist – qHTS for Agonists of the Human Mucolipin Transient Receptor Potential 1 (TRPML1) | TRPML1-expressing cells, Ca2+ dye fluorescence, FDSS; host cell line not named in the record; reference of the full effect not given here | activation, % (no concentration beside the values) | 410,000 tested, 0.12% active; in the data active = activation above about 50%; inconclusive = about 30% to 50%; inactive = below about 30%; further: 0% is about no effect; the text of the record puts the active cut at 80%
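In this qHTS format, compounds were pin-transferred onto Ca8-dye-loaded TRPML1-DL cells induced with Tet overnight, and intracellular Ca2+ fluorescence was recorded kinetically for 110 s after a 10 s baseline. A subsequent 4uM final 54-4 (EC80) addition followed by a second 110 s read served as the antagonist phase.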
D2 potentiator – Beta-Arrestin HTS for Positive Allosteric Modulators of the Human D2 Dopamine Receptor: Potentiators | 360,000 tested, 0.23% active | D(2) dopamine receptor (Homo sapiens), P14416 | AID 624464, 2012 | potentiation, % (test concentration not listed) | DiscoveRx D2 beta-arrestin cells, luminescence, 90 min; 100% = 57 uM dopamine signal; active = potentiation of 50% or more; inconclusive = 30% to 50%; inactive = 30% or less;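 further: compound concentration not given in the record; tested on top of an EC20 dose of dopamine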
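PathHunter beta-arrestin assay in DiscoveRx D2 cells. Compounds were added with an EC20 of dopamine (50 nM final) for 90 min at 37 deg C. Luminescence was read 1 h after detection reagent, with 57 uM dopamine as the EC100 control.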
Active calls of the source: *; ? = inconclusive; . = no result given; [ ] = another dose, or the depositor's remark.

SMILES | TRPML1 blocker | PINK1 expr mod | D2 agonist | Six1-Eya2 blk | TRPML1 agonist | D2 potentiator
Cc1nc(NCc2ccccc2)[nH]c(=O)c1CCC(C)C | -9 | -2.4%[38.3 µM] | -1.8 | -3 | -0.2 | -7
Cc1cc(=O)oc2cc(NC(=O)C(C)Oc3ccc(F)cc3)ccc12 (stereo not given) | -14 | 4.6% | -3.3 | 7 | 0.0 | -33
COc1ccc2c(c1)c1ncn(Cc3ccc(F)cc3)c(=O)c1n2C | -21 | 4.3% | 6.2 | -8 | 1.1 | 26
COc1cccc(C(=O)Nc2cccc(C(=O)OCc3cc(=O)n4nc(C5CC5)sc4n3)c2)c1 | -4 | -1.6% | . | . | -0.2 | .
O=S(=O)(NCc1cc(-c2ccc(Cl)cc2)no1)c1ccccc1 | -5 | 5.6% | -0.1 | 2 | 0.6 | 6
COc1ccc(CN(CCC(C)C)S(=O)(=O)c2ccccc2Br)cc1 | 24 | 6.0% | -0.3 | 42 | 4.2 | -5
O=C(NCc1ccccc1)c1nnc(CS(=O)(=O)c2ccccc2)o1 | 3 | -0.2% | -4.7 | 6 | -0.1 | -2
CC(=O)Oc1ccccc1N(C(C)=O)S(=O)(=O)c1ccc2ccccc2c1 | -14 | 0.4% | -1.5 | 0 | -0.1 | -6
O=C(O)CCCc1nc(-c2ccc(Cl)cc2)no1 | 0 | -0.4% | -1.3 | 2 | -0.9 | -8
O=C(NCCc1ccccc1)c1ccc(CS(=O)(=O)Cc2ccccc2F)o1 | -11 | 1.9% | -3.3 | -5 | 0.4 | -23
Cc1ccc(CCNC(=O)c2ccc3c(c2)N(Cc2cccc(C)c2)C(=O)c2ccccc2S3(=O)=O)cc1 | -18 | 0.3% | . | . | -0.3 | .
Cc1ccc(C(c2sc3nc(C)nn3c2O)N2CCN(c3ccc(F)cc3)CC2)cc1 (stereo not given) | 38 | -1.2% | -2.5 | -2 | -0.1 | 14
Cc1cccn2c(=O)c(/C=C(\C#N)c3nc4ccccc4[nH]3)c(Oc3ccc(C(C)(C)C)cc3)nc12 | -1 | ? | . | . | -0.4 | .
O=c1[nH]nc(Cc2ccc([N+](=O)[O-])cc2)c2ccccc12 | 15 | 3.5% | -3.1 | 1 | -1.4 | -2
CCn1c(C)c(C)c2cc(C(=O)NCCCN3CCCC3)ccc21 | -5 | -1.0% | -1.6 | -11 | 0.1 | -28
O=C(NCc1ccc2c(c1)OCO2)c1ccc(CSCc2ccccc2Cl)o1 | -14 | 0.4% | -1.3 | -12 | 1.5 | -10
Cn1c(N/N=C2\CCCc3ccccc32)nc2c1c(=O)n(Cc1ccccc1)c(=O)n2C | -6 | 3.9% | -0.5 | 0 | -0.4 | -9
COC(=O)[C@@H](NC(=O)Nc1ccc2c(c1)OCCO2)C(C)C | -12 | -0.7% | -2.9 | 3 | -0.7 | 8
COc1ccccc1N1CCN(/N=C\c2sccc2C)CC1 | 5 | 4.6% | -4.6 | ? | 0.6 | -5
Cn1c(=O)n(C)c2cc(S(=O)(=O)NCC(=O)O)ccc21 | 13 | 1.1% | -1.2 | 7 | -0.3 | 0
Cc1ccc(S(=O)(=O)c2nc(-c3ccc(Cl)cc3)oc2N2CCCCCC2)cc1 | -10 | 1.7% | . | . | 0.6 | .
C/C(=N/NS(=O)(=O)c1cc(C)ccc1C)c1ccncc1 | -6 | 0.2% | -3.1 | -10 | -0.3 | -8
O=C(OCc1nnc(-c2ccccc2)o1)c1ccc(S(=O)(=O)NCc2ccco2)cc1 | 21 | -2.1% | -3.1 | -16 | 1.0 | -17
NC(=O)COC(=O)c1c2c(nc3ccccc13)CCCCC2 | 6 | 2.8% | -6.5 | 5 | 0.0 | -3
Cc1ccc(S(=O)(=O)N2CCCC(C(=O)NC3CCCC3)C2)cc1 (stereo not given) | 13 | 7.9% | -1.7 | 3 | -0.6 | -5
COc1ccccc1N1CCN(C2CCCN(C(=O)CCc3cnn(C)c3)C2)CC1 (stereo not given) | 4 | 2.4% | -5.1 | 3 | 0.0 | -35
O=S(=O)(c1cccs1)n1nnc2ccccc21 | -3 | 3.3% | -1.4 | 0 | -0.6 | -5
O=C1c2ccccc2CN1Cc1ccccc1 | 8 | -1.3% | -0.2 | -3 | -0.2 | 2
C=CCn1c(P(=O)(O)c2ccccc2)nc2ccccc21 | -16 | 0.0% | 1.3 | 2 | 0.6 | -1
CCCC(=O)N1CCN(c2ccc(NC(=O)c3cc4ccccc4o3)cc2)CC1 | -9 | -1.2% | -5.9 | 4 | -0.4 | -5
CC12CCC(C(=O)Nc3ccc(Br)cn3)(OC1=O)C2(C)C (stereo not given) | 2 | 4.9% | -3.8 | 4 | 0.0 | -15
O=C(Nc1ccc(Oc2nnc(-c3ccccc3)c3ccccc23)cc1)c1ccccc1 | -5 | 2.0% | -1.9 | 0 | 0.7 | 0
COc1ccc(C(=O)COC(=O)c2cc(S(=O)(=O)N3CCCCC3)ccc2N2CCOCC2)c(OC)c1 | -2 | -3.3% | 2.2 | -8 | 1.2 | 1
Fc1ccccc1-c1[nH]ncc1-c1nnnn1-c1ccccc1 | 32 | 1.6% | -4.0 | -2 | 1.8 | 2
C/C(Cc1ccccc1)=N\NC(=O)CNC(=O)Cc1ccccc1 | -2 | 0.1% | 11 | 6 | 0.2 | 18
Nc1n[nH]c(N)c1N=Nc1ccc(F)cc1 | -6 | 0.3% | -2.4 | 1 | 1.6 | -1
CC(C)CCNC(=O)CN1C(=O)COc2ccc(S(=O)(=O)N3CCOCC3)cc21 | 5 | 3.4% | . | . | 0.1 | .
O=c1c2ccccc2nc2n1C(CSCc1ccc(Cl)cc1Cl)CS2 (stereo not given) | -6 | 2.5% | 4.7 | 2 | 0.1 | 0
CCOC(=O)C1=C(O)/C(=C/c2ccc(OCC(=O)O)c(OC)c2)SC1=Nc1ccc(OC)cc1 | -4 | 2.2% | -5.2 | -4 | 0.0 | -10
COc1ccc(C(C(=O)NC2CCCC2)N(C(=O)c2ccoc2C)c2ccc(C)c(C)c2)cc1 (stereo not given) | 40 | 3.3% | -6.4 | 0 | 0.6 | -12
CCNC(=O)Cn1nc(C)n2c(cc3c(OC)cccc32)c1=O | 17 | -1.0% | . | . | -0.3 | .
CC(C)c1nnc(NC(=O)C2CCN(C(=O)Nc3ccccc3)CC2)s1 | -3 | -1.0% | -2.6 | -1 | -0.3 | -5
O=S(=O)(CCS(=O)(=O)c1ccccc1)c1ccccc1 | 3 | -1.5% | -5.7 | 4 | -0.3 | -3
CC(=O)Nc1c(O)nc(SCc2ccccc2C#N)[nH]c1=O | 8 | 1.9% | -1.2 | 1 | 1.5 | 10
Cc1ccc(-c2nnn(CC(=O)NC3CCN(Cc4ccccc4)CC3)n2)cc1 | -6 | -2.8% | 0.5 | -2 | 0.7 | -12
COc1ccc(C2N(S(=O)(=O)c3ccccc3)CCN2S(=O)(=O)c2ccc(C)cc2)cc1 (stereo not given) | -1 | 3.3%[38.3 µM] | -4.9 | -3 | -0.2 | -7
N/C(=N\OC(=O)CC(c1ccccc1)c1ccccc1)c1cccnc1 | 2 | -1.4% | ? | 23 | 1.4 | 11
COc1cc(/C(C#N)=C/c2ccccc2)c([N+](=O)[O-])cc1OC | 30 | 1.2% | -4.6 | -14 | -1.1 | -20
Cc1cc(=O)oc2cc(OCC(=O)NCc3ccco3)ccc12 | -4 | -1.5% | 1.7 | 0 | 0.3 | 2
CCOC(=O)/C=C1\SCC(=O)N1CC(O)CN1C(=O)CS/C1=C/C(=O)OCC (stereo not given) | 6 | 1.0% | 2.6 | -10 | 1.3 | 2
COc1cc(OC)c(NC(=O)N2CCc3c(sc4c3CCCC4)C2c2ccccc2)cc1Cl (stereo not given) | 7 | 0.6% | . | . | -0.1 | .
CCOc1ccccc1C(=O)N1CCN(c2ccc(C(F)(F)F)cn2)CC1 | 5 | 3.5% | -4.8 | 8 | -0.2 | 0
COc1ccc(NC(=O)N2CCCC2C(=O)NCc2ccc(C)cc2)cc1 (stereo not given) | -3 | 1.1% | -1.7 | 16 | -0.8 | -3
Cc1ccc(/C=C/C(=O)c2ccc(N3CCOCC3)cc2)s1 | 10 | 4.2% | -5.3 | 7 | -0.2 | -3
Cc1ccccc1NC(=O)c1cc(-c2ccco2)nc2ccccc12 | 0 | 1.8% | 12 | -19 | 2.4 | 5
Cc1ccc(NC2=C(N3CCCCC3)C(=O)c3ccccc3C2=O)cc1 | 7 | . | 3.9 | ? | 0.7 | 29
O=C1c2ccccc2N[C@@H]2C=CC[C@@H]2N1O | -16 | 0.6% | -0.1 | -5 | -0.3 | .
C=CCn1ccc(=O)nc1SC | -28 | -3.9% | 1.0 | -15 | 0.0 | -6
CCOC(=O)c1csc(NC(=O)c2cc(=O)c3ccccc3o2)n1 | 2 | -0.4% | 2.9 | -2 | 1.2 | -8
CCOC(=O)Nc1ccc2nc(-c3cscn3)[nH]c2c1 | -1 | 8.8% | -2.7 | -1 | -0.5 | -9

New compounds follow.
SMILES | TRPML1 blocker | PINK1 expr mod | D2 agonist | Six1-Eya2 blk | TRPML1 agonist | D2 potentiator
CCOC(=O)c1[nH]c(C=O)c(C(=O)OCC)c1C | -19 | 3.0% | 3.6 | 7 | 1.6 | 21
CC1(C(=O)NS(=O)(=O)c2ccc3c(c2)CCO3)CCN1C(=O)Cc1ccc(-c2ccccc2)cc1 (stereo not given) | . | -0.2% | -3.0 | 9 | -0.7 | -6
CCc1ccc2nc(NC(=O)CSCc3c(C)noc3C)sc2c1 | -14 | 3.8% | -5.4 | -3 | 1.7 | -8
COc1cc(C(=O)NNC(=O)c2cccc(Cl)c2)ccc1OCC(=O)N1CCOCC1 | 1 | -0.4% | 0.0 | 0 | -0.2 | 14

Single records (already shown).
`O=C1c2ccccc2N[C@@H]2C=CC[C@@H]2N1O` in the list: TRPML1 blocker: -16; PINK1 expr mod: 0.6%; D2 agonist: -0.1; Six1-Eya2 blk: -5; TRPML1 agonist: -0.3; D2 potentiator: .
`O=C(NCCc1ccccc1)c1ccc(CS(=O)(=O)Cc2ccccc2F)o1` in the list: TRPML1 blocker: -11; PINK1 expr mod: 1.9%; D2 agonist: -3.3; Six1-Eya2 blk: -5; TRPML1 agonist: 0.4; D2 potentiator: -23
`C/C(=N/NS(=O)(=O)c1cc(C)ccc1C)c1ccncc1` in the list: TRPML1 blocker: -6; PINK1 expr mod: 0.2%; D2 agonist: -3.1; Six1-Eya2 blk: -10; TRPML1 agonist: -0.3; D2 potentiator: -8

Assay outcomes from PubChem BioAssay.
